VDR inhibitor – vitamin D3 receptor (human) inhibition | actives 0.93% (n = 400,000) | Potency, µM, inactives show max response, negative = inhibition, actives largely listed as inhibitors | VDR-SRC2-3 peptide fluorescence polarization, 2 h | AID 504847 | P11473; active = well fitted inhibition curve with a large enough effect; inconclusive = small, poorly fitted or top-dose-only effect, or another doubt; inactive = no such curve, though single readings can be large or run the other way; note: series mostly up to about 120 µM
Target sequence (P11473 whole entry, looked up): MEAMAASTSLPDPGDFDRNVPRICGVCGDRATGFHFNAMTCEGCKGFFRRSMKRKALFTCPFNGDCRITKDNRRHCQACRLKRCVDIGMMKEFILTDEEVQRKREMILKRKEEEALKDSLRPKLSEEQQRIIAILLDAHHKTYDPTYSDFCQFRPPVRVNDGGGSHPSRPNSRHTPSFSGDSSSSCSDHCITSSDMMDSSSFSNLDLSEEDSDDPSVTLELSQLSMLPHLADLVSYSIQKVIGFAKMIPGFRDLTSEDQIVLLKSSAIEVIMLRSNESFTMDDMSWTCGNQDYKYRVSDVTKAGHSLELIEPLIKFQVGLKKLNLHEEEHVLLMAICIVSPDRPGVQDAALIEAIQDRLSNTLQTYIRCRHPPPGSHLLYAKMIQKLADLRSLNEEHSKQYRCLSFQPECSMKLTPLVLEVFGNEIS
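Inhibition of the VDR/SRC2-3 peptide interaction is quantified by fluorescence polarization. Compounds (23 nl, pintool) incubate with the reagents for 2 hours at ambient room temperature.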
Active calls of the source: *; ? = inconclusive; [ ] = remark or other dose. % is set by controls: 0 for no effect and ±100 for the full control effect; potency is the fitted concentration of half-maximal effect.

canonical_smiles	VDR inhibitor
COc1cc(C(=O)NCC2CCCN2S(=O)(=O)c2cccs2)cc(OC)c1OC (centres undefined)	-3.2%
COC(=O)C1=C(CS(=O)(=O)c2ccc(OC)c(OC)c2)NC(=O)NC1c1ccc(O)c(OC)c1 (centres undefined)	-2.4%
COc1ccc(S(=O)(=O)N2CCCCC2)cc1NC(=O)Cc1cccs1	-6.7%
CC1=C(C(=O)N2CCN(c3ccc(Cl)cc3)CC2)C2(CCC(C)CC2)OC1=O (centres undefined)	-9.5%
Clc1ccc(/C=C/c2ncc3ccccn23)cc1	5.6%
CCOC(=O)c1nc(NCc2cccc(OC)c2)c2ccccc2n1	-11.8%
Cn1c(SCC(=O)N2CCN(C(=O)c3ccco3)CC2)nnc1-c1ccc(NS(C)(=O)=O)cc1	-11.9%
N#CC1=C(N)Oc2cc(O)ccc2C1c1ccncc1 (centres undefined)	-14.4%
CCOC(=O)c1cccc(NC(=O)N2CCC(CN3CCc4ccccc4C3)CC2)c1	13.0%
Cc1ccc(S(=O)(=O)N(C)CC(=O)OCC(=O)NCCc2ccc(S(N)(=O)=O)cc2)cc1	9.1%
C=CC[C@@H](Cc1ccc(F)cc1)C(=O)OC[C@@H]1CCCN1C(=O)[C@H](CC=C)CC(=O)N(CCO)Cc1ccccc1	-19.2%
O=C(Cn1nnc(-c2ccccc2)n1)Nc1ccc2c(c1)OCO2	-4.0%
Cc1ccccc1CN1CCN(Cc2ccccc2C(F)(F)F)CC1	-8.4%
COc1cccc(N2CCN(c3ccc(S(=O)(=O)N4CCN(C)CC4)cc3[N+](=O)[O-])CC2)c1	5.2%
CC1=NN(c2nc(N)nc(/C(C#N)=C/c3ccc([N+](=O)[O-])o3)n2)C(C)(C)C1	-17.0%
Cc1onc(-c2c(F)cccc2Cl)c1C(=O)NCC1COc2ccccc2O1 (centres undefined)	22.5%
COc1ccc(O)c(C2(O)C(=O)c3ccccc3C2=O)c1	17.8%
C/C(=N\NC(=S)NCc1ccccc1)c1ccc(Br)cc1	-5.7%
CCO[C@@H]1OC(C(=O)N2CCN(Cc3ccccc3)CC2)=C[C@H](c2cn(C(C)=O)c3ccccc23)[C@H]1CCCO	-5.7%
COc1ccc(NS(=O)(=O)c2ccc(C)c(C(=O)N(C)CCc3ccc(OC)c(OC)c3)c2)cc1	-22.5%
O=C(CCCc1ccccc1)c1ccccc1	-7.3%
COc1ccc(CC2(CO)CCN(CC3=Cc4cc(Cl)ccc4OC3)CC2)cc1	3.6%
COc1ccc(-c2nnc(COc3ccc4ccccc4c3)o2)cc1OC	-1.1%
Fc1cccc(Cc2noc(CN3CCCCC3CCc3ccccn3)n2)c1 (centres undefined)	31.1%[activator]
O=C(COC(=O)c1ccc(S(=O)(=O)N2CCCC2)cc1)Nc1ccc(F)cc1F	-15.6%
CCC(=O)NC(C)C(c1cccs1)N1CCN(Cc2ccccc2)CC1 (centres undefined)	9.4%
CCOC(=O)c1csc(N)c1-c1ccc([N+](=O)[O-])cc1	?
COc1ccccc1-c1nnc(NC(=O)C(C)SC2=NCCS2)s1 (centres undefined)	-14.5%
Cc1ccc(C(=O)NC(C)c2ccc3c(c2)OCO3)s1 (centres undefined)	?
COc1cccc(CNC(=O)CSc2nnc(C)c3c(C)n(-c4ccccc4)nc23)c1	8.1%
Cn1c(=O)c(=O)n(C)c2cc(N3CCCC3)c(NS(=O)(=O)c3ccc(Cl)cc3)cc21	-21.8%
CCOC(=O)c1c(NC(=O)C(NCCN(C)C)c2ccccc2)sc2c1CCCC2 (centres undefined)	-1.3%
CCOc1ccccc1Nc1ccc(C(=O)O)cc1[N+](=O)[O-]	-7.1%
CCSc1nc2ccccc2c(OCc2ccc(Cl)cc2)c1C(=O)OC	4.8%
CCCCCCCc1cc2ccccc2c(=O)o1	-4.8%
CCc1ccccc1NC(=O)[C@@H](c1ccccc1)N1Cc2ccccc2C1=O	-18.0%
Cc1cc(C)n(-c2ccc(C(=O)OCC(=O)NC(c3ccccc3)c3ccccc3)cc2)n1	1.6%
O=C(c1cccc(S(=O)(=O)NCc2ccccc2)c1)N1CCN(c2ccccc2)CC1	21.2%
OCC#Cc1ncc(C(F)(F)F)cc1Cl	-17.9%
CCCN(CCC)CCNC(=O)CS(=O)Cc1nc(-c2ccc(OC)c(OC)c2)oc1C (centres undefined)	-1.4%
CCC(=O)NCCSc1c[nH]c2ccccc12	-1.3%
Cc1cccc(C)c1Nc1c(-c2ccsc2)nc2ncccn12	-9.9%
CC(C)(C)C(=O)NNC(=O)C1CC1(c1ccccc1)c1ccccc1 (centres undefined)	7.0%
COc1ccc2c(C)c(CC(=O)NCCc3ccc(Cl)cc3)c(=O)oc2c1C	-0.1%
CC(C)C(NC(=O)OCc1ccccc1)C(=O)NCC(=O)OC(C)(C)C (centres undefined)	-3.4%
CCNC(=S)NC1CC2CCCC(C1)N2Cc1ccco1 (centres undefined)	-4.8%
O=C1c2cc([N+](=O)[O-])cc3cc([N+](=O)[O-])cc(c23)C(=O)N1c1ccccn1	-11.7%
NC(=O)c1nsc(C(=O)N(CC(=O)NC2CCCCC2)c2cccc(F)c2)c1N	-3.0%

Random excerpt: 3 entries already listed, in no set order.
canonical_smiles	VDR inhibitor
COc1ccc2c(C)c(CC(=O)NCCc3ccc(Cl)cc3)c(=O)oc2c1C	-0.1%
CCCN(CCC)CCNC(=O)CS(=O)Cc1nc(-c2ccc(OC)c(OC)c2)oc1C (centres undefined)	-1.4%
Cc1cccc(C)c1Nc1c(-c2ccsc2)nc2ncccn12	-9.9%

(list continues)
canonical_smiles	VDR inhibitor
CCSc1nc(C2CC2)cc(-c2cccs2)c1C#N	12.7%
N#C/C=C(/N)c1ccc(Br)cc1	-11.2%
CC(C)(C)C(=O)NNC(=O)c1cc(C(C)(C)C)nn1Cc1ccccc1	-24.1%
Cn1c2c(c(=O)n3ncnc13)CCCC2	-1.5%
CC(C)c1nc(CNC(=O)C2CCC(=O)N(Cc3ccc(Cl)cc3)C2)no1 (centres undefined)	15.4%
CCc1ccc(N2CC(C(=O)OCC(=O)NNC(=O)c3ccccc3)CC2=O)cc1 (centres undefined)	-19.1%
CCCN(CCO)Cc1cccc(Oc2ccccc2)c1	19.6%
Cc1ccccc1Nc1nc(N)nc(COC(=O)C(NC(=O)c2ccco2)C(C)C)n1 (centres undefined)	-4.4%
CCCCCCn1c2c(c(=N)c3c1CCC3)CCC2	16.9%
CCCc1cc(NCCCn2ccnc2)n2nc(C)c(-c3ccccc3)c2n1	-1.6%
Cc1cc2cc(CNC(=O)Cc3ccc([N+](=O)[O-])cc3)ccc2n1C	-15.2%
CN(C)c1ccc(CNC(=O)C2CCN(C(=O)c3ccc(-n4ccc5ccccc54)s3)CC2)cc1	2.6%
O=C(CCC(=O)N(CC(=O)NC1CCCC1)Cc1ccc2c(c1)OCO2)Nc1ccccn1	6.4%
CCOC(=O)c1ccc(NS(=O)(=O)c2cnc[nH]2)cc1	-5.9%
Cc1cccc(CSc2nc3cccnc3n2Cc2ccc(C(=O)NCc3ccco3)cc2)c1	-5.1%
CC(=O)CCN1CCOCC1	11.9%
COC(=O)c1cc(S(=O)(=O)NCc2cc(OC)c(OC)c(OC)c2)cn1C	-2.9%
Cc1cc(C)c2cc(C(c3nnnn3CC3CCCO3)N3CCN4CCCC4C3)c(=O)[nH]c2c1 (centres undefined)	9.3%
CC1(OC(=O)C2CCCC2)C(=O)C=C2C=C(c3ccsc3)N(Cc3ccc4c(c3)OCO4)C=C2C1=O (centres undefined)	-10.7%
COc1ccc2c(c1OC)C(=O)N(c1ccc(C)cc1)C2=O	11.3%
O=C(NCc1cccs1)c1ccc(CSc2nc3ccncc3n2Cc2ccccc2F)cc1	-4.1%
CNC(=O)C(=O)N/N=C/c1ccc(Br)cc1	14.9%
COc1ccc(-c2nnc(NC(=O)CSc3ccc(C)cc3)s2)cc1OC	-4.6%
Cc1cc(C)c2c(=O)n(CC(=O)Nc3cccc(Cl)c3C)sc2n1	17.8µM*
CC(C)[C@@H](CC(=O)N[C@@H]1CCCC[C@H]1C(=O)N[C@H](CC(=O)N[C@@H](CCC(=O)O)CC(=O)O)Cc1c[nH]c2ccccc12)NC(=O)C[C@H](Cc1c[nH]c2ccccc12)NC(=O)[C@@H]1CNCC[C@H]1N	1.2%
COc1ccc(-n2c(C)cc(C(=O)COC(=O)c3cc(NC(=O)c4cccs4)c(OC)c(OC)c3)c2C)cc1	0.1%
COC(=O)c1cccc(C23CC4(C2)[C@H](CN(C)[C@@H]4c2ccccc2)C3c2ccccc2)c1 (some centres undefined)	8.3%
CCn1c(C)c(C)c2cc(C(=O)NCCc3cc(OC)c(OC)c(OC)c3)ccc21	-2.6%
CN(C(=O)c1cccc(NC(=O)Cc2ccc(NC(=O)C3CCN(C(=O)C4CCCC4)CC3)cc2)c1)C1CCC1	10.3%
O=C(CSc1nnc(Nc2ccccc2)s1)NC1CCS(=O)(=O)C1 (centres undefined)	14.9%
CCN1c2ccccc2N(C)C1(C)c1ccccc1 (centres undefined)	?
O=C(CSc1ccsc1[N+](=O)[O-])NCc1ccco1	-2.8%
COc1ccc(CC(=O)NC(=S)NNC(=O)COc2c(C)cccc2C)cc1	-12.3%
O=C1NN=C(c2ccc(Cl)cc2)CC1c1cccc(Cl)c1 (centres undefined)	10.5%
CCOC(=O)N1CCC(NC(=O)Cn2cc3c(n2)CCC(C)C3)CC1 (centres undefined)	7.6%
Cc1sc(NC(=O)COc2ccccc2)c(C#N)c1-c1ccccc1	-18.8%

Other records
canonical_smiles	VDR inhibitor
CCc1ccc(NC(=O)C(C)OC(=O)/C=C/c2cccc([N+](=O)[O-])c2)cc1 (centres undefined)	7.8%
CC(C)C[C@@H](CC(=O)N[C@@H](CCC(=O)O)CC(=O)O)NC(=O)[C@@H]1CCCC[C@H]1NC(=O)C[C@H](CCCN)NC(=O)C[C@H](Cc1c[nH]c2ccccc12)NC(=O)[C@@H]1CNCC[C@H]1N	9.0%
COc1ccc(NC(=O)C2CCCN2S(=O)(=O)c2ccc(F)cc2)cc1 (centres undefined)	-13.5%
c1cc2c3c(cccc3c1)C(N1CCOCC1)=N2	-13.5%
COC[C@H]1OC=C[C@@H](OC)[C@@H]1OC	3.3%
CCc1ccc(CNC(=O)C2CCN(C(=O)c3ccc(-n4ccc5ccccc54)s3)CC2)cc1	7.9%
S=C(NCc1ccc(Cl)cc1)NCc1ccco1	-0.2%
Fc1cccc(Nc2nc3ccccc3n3cnnc23)c1	6.0%
CC(O/N=C\c1ccccc1O)C(=O)Nc1ccccc1C(=O)N1CCOCC1 (centres undefined)	14.9%
CC1CN(C(=O)c2ccc(COc3ccccc3Br)o2)CC(C)O1 (centres undefined)	20.8%

Looked up above:
CCCN(CCC)CCNC(=O)CS(=O)Cc1nc(-c2ccc(OC)c(OC)c2)oc1C (centres undefined) in VDR inhibitor is entered as -1.4%
COC(=O)C1=C(CS(=O)(=O)c2ccc(OC)c(OC)c2)NC(=O)NC1c1ccc(O)c(OC)c1 (centres undefined) in VDR inhibitor is entered as -2.4%
CC1(OC(=O)C2CCCC2)C(=O)C=C2C=C(c3ccsc3)N(Cc3ccc4c(c3)OCO4)C=C2C1=O (centres undefined) in VDR inhibitor is entered as -10.7%

Other entries:
canonical_smiles	VDR inhibitor
Cc1cc(NC(=O)CCC(=O)N(Cc2ccco2)C(C(=O)NC2CCCCC2)c2cccs2)no1 (centres undefined)	-2.7%
CCOc1cc2[nH]c(=O)n(CC3CCC(C(=O)NCCC(C)C)CC3)c(=O)c2cc1OCC (centres undefined)	12.6%
COc1cccc(N2C(=O)CC(N3CCc4ccccc43)C2=O)c1 (centres undefined)	4.9%
Cc1cc(C)cc(NC(=O)CSc2nnc(CNC(=O)c3ccco3)n2C)c1	-15.6%
CCOC(=O)NC(NC(=S)Nc1ccc(OC)cc1)C(Cl)(Cl)Cl (centres undefined)	-11.5%
Nc1ccc(C#Cc2ccc3sc4ccccc4c(=O)c3c2)cc1	-0.5%
COc1cc2cnc(-c3ccccc3F)cc2cc1OC	5.3%
CCCCCCCCCCS(=O)(=O)N/N=C/c1ccccc1OC	-20.7%
O=C1NC(c2ccccc2)=NC1(NS(=O)(=O)c1ccc(Cl)cc1)C(F)(F)F (centres undefined)	-14.0%
COc1cccc(CN(C)C(=S)Nc2ccc(C)c(C)c2)c1	-1.7%
CCNC(=O)/C(=C\C=C\c1ccccc1)NC(=O)c1ccc(Br)o1	-19.1%
CCC(Sc1nc2ncccc2[nH]1)C(=O)NC1CCCC1 (centres undefined)	-3.6%
COc1ccc(N(CC(=O)Nc2ccccc2SC)S(C)(=O)=O)cc1OC	-16.4%
Cc1cc(C)cc(NC(=O)COc2cccc3c(=O)n(C)ccc23)c1	3.8%
CC(C)(C)c1ccc(C(=O)Nc2ccc(CN3CCS(=O)(=O)CC3)cc2)cc1	-5.2%
COc1ccc([C@H]2C=C3CN(C(=O)OC(C)(C)C)S(=O)(=O)[C@H]3C[C@H]2OC(=O)c2ccc(C(F)(F)F)cc2)cc1	-15.5%
O=c1cc(/C=C/c2c(F)cccc2Cl)[nH]c2ccccc12	-16.6%
Nc1nonc1C(=O)NCCNc1ccc([N+](=O)[O-])cn1	-6.3%
COc1ccccc1-c1nnc(C2CCN(C(=O)c3ccc(Cl)cc3)CC2)o1	9.9%
CCOc1ccc(C[C@H]2NC(=O)CCSSC[C@@H](C(=O)N3CCC[C@H]3C(=O)N[C@@H](CCCN)C(=O)NCC(N)=O)NC(=O)[C@H](CC(N)=O)NC(=O)[C@H]([C@@H](C)O)NC(=O)[C@H]([C@@H](C)CC)NC2=O)cc1	37.5%[activator]
CCCCn1c(=O)[nH]c(=O)c2c1nc(-c1ccccn1)n2CC	-0.1%
O=C1c2ccncc2C(=O)N1Cc1cccc(Cl)c1	5.2%
COc1ccc(OCC(=O)Nc2ccc3c(c2)nc2n3CCSC2)cc1	-15.5%
COc1cc(CCC(=O)Nc2ncc(C)s2)cc(OC)c1OC	-5.7%

High-throughput results from PubChem BioAssay.

Not all compounds are listed. The share of hits here may be higher or lower than overall.
